UUG fidelity: yeast start codon fidelity modulation | S. cerevisiae UUG-firefly luciferase reporter, luminescence/redox ratio | activity score, % at 18.7 µM | 350,000 compounds, 0.13% hits | AID 602363;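 active means replicate mean at a twofold rise or more, about +100% in these data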;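 further: firefly luciferase made from a UUG start codon reports start codon fidelity; reporter light over untreated wells divided by growth signal over untreated wells; some hits fall short of that in this replicate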
HIV Env fusion: blocks HIV Env-driven cell-cell fusion; 360,000 compounds, 1.1% hits; inhibition, % at 12.3 µM; HeLa-JRFL Env/CEM21 cell fusion, luciferase;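 active means mean replicate inhibition score of at least 50 and every replicate individually at or above 50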;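 further: 0% = plate neutral controls and 100% = maraviroc near 300 nM; one replicate is shown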
Numbers without * were called inactive; [ ] = another dose, or the depositor's remark.

Results for C[C@H]1CN([C@@H](C)CO)C(=O)Cc2cc(NS(=O)(=O)c3cn(C)cn3)ccc2O[C@@H]1CN(C)Cc1ccc(C(=O)Nc2ccccc2N)cc1 ?
UUG fidelity: -15; HIV Env fusion: 10[16.7 µM]

How did N#C[C@@H]1N[C@H](CO)[C@H]1c1ccc(C#CC2CCCC2)cc1 do in these assays?
UUG fidelity: -10; HIV Env fusion: 24[16.7 µM]

What do the screens show for `C[C@@H]1CCCCO[C@H](CN(C)Cc2ccc(Cl)c(Cl)c2)[C@@H](C)CN([C@@H](C)CO)C(=O)c2cc(NS(=O)(=O)c3cn(C)cn3)ccc2O1`?
UUG fidelity: 2; HIV Env fusion: -3[16.7 µM]

What do the screens show for `CCCN(C)C[C@H]1Oc2ncc(C#CCC(C)C)cc2C(=O)N([C@H](C)CO)C[C@@H]1C`?
UUG fidelity: 57; HIV Env fusion: 15[16.7 µM]

What do the screens show for `CCC(=O)N[C@H]1CC[C@@H](CC(=O)NCc2ccccc2OC)O[C@@H]1CO`?
UUG fidelity: -14; HIV Env fusion: -24[16.7 µM]

Results for COCC(=O)N(C)C[C@H]1Oc2ncc(/C=C/c3ccccc3)cc2C(=O)N([C@H](C)CO)C[C@H]1C ?
UUG fidelity: 5; HIV Env fusion: -8[16.7 µM]

How did C[C@@H]1CN([C@H](C)CO)C(=O)c2cc(NC(=O)Nc3ccc(C(F)(F)F)cc3)ccc2O[C@@H]1CN(C)Cc1ccc2c(c1)OCO2 do in these assays?
UUG fidelity: -6; HIV Env fusion: 9[16.7 µM]

Results for COCC(=O)N(C)C[C@H]1Oc2cc(C#C[C@H](C)O)ccc2S(=O)(=O)N([C@@H](C)CO)C[C@@H]1C ?
UUG fidelity: -1; HIV Env fusion: 5[16.7 µM]

What do the screens show for `C[C@@H]1CN([C@@H](C)CO)C(=O)c2cc(-c3ccccc3)cnc2O[C@@H]1CN(C)C`?
UUG fidelity: -8; HIV Env fusion: -17[16.7 µM]

Results for NCC[C@@H]1CC[C@@H](NC(=O)CCN2CCCCC2)[C@H](CO)O1 ?
UUG fidelity: -21; HIV Env fusion: 1[16.7 µM]

How did CCCNC(=O)C[C@@H]1CC[C@@H]2[C@H](COc3ccc(NC(=O)NCC)cc3C(=O)N2C)O1 do in these assays?
UUG fidelity: -7; HIV Env fusion: -9[16.7 µM]

How did C[C@H]1CN([C@@H](C)CO)C(=O)c2cc(C#Cc3cccnc3)cnc2O[C@H]1CN(C)Cc1ccncc1 do in these assays?
UUG fidelity: -6; HIV Env fusion: -15[16.7 µM]

Results for O=C(C[C@@H]1C[C@H]2c3cc(NS(=O)(=O)c4ccc(F)cc4)ccc3O[C@H]2[C@H](CO)O1)NCCc1ccccc1 ?
UUG fidelity: 1; HIV Env fusion: 11[16.7 µM]

What do the screens show for `CCNC(=O)C[C@H]1CC[C@H]2[C@@H](COc3ccc(NC(=O)Nc4cccc(Cl)c4)cc3C(=O)N2C)O1`?
UUG fidelity: 11; HIV Env fusion: 30[16.7 µM]

Results for CCCN(C)C[C@H]1OCCCC[C@@H](C)Oc2ccc(NS(=O)(=O)c3ccc(F)cc3)cc2C(=O)N([C@@H](C)CO)C[C@@H]1C ?
UUG fidelity: 8; HIV Env fusion: -8[16.7 µM]

What do the screens show for `COc1ccccc1S(=O)(=O)N[C@H]1C=C[C@@H](CC(=O)N2CCOCC2)O[C@@H]1CO`?
UUG fidelity: -5; HIV Env fusion: 11[16.7 µM]

How did COc1ccc(CNC(=O)C[C@H]2CC[C@H](NC(=O)CN(C)C)[C@H](CO)O2)cc1 do in these assays?
UUG fidelity: 10; HIV Env fusion: 9[16.7 µM]

What do the screens show for `Cc1noc(C)c1NC(=O)Nc1ccc2c(c1)C(=O)N([C@@H](C)CO)C[C@@H](C)[C@H](CN(C)C(=O)Nc1ccc(F)cc1)O2`?
UUG fidelity: -9; HIV Env fusion: 14[16.7 µM]

Results for COc1ccc(NC(=O)Nc2ccc3c(c2)C(=O)N([C@H](C)CO)C[C@@H](C)[C@H](CN(C)C(=O)C2CCCCC2)OCCCC[C@@H](C)O3)cc1 ?
UUG fidelity: -5; HIV Env fusion: -14[16.7 µM]

What do the screens show for `Cc1ccc(-c2ccc3c(c2)O[C@@H](CN(C)C(=O)CN(C)C)[C@@H](C)CN([C@@H](C)CO)S3(=O)=O)cc1`?
UUG fidelity: -1; HIV Env fusion: -22[16.7 µM]

How did COc1cccc(NC(=O)N(C)C[C@H]2Oc3cc(C#Cc4ccccc4)ccc3S(=O)(=O)N([C@@H](C)CO)C[C@@H]2C)c1 do in these assays?
UUG fidelity: 14; HIV Env fusion: -22[16.7 µM]

How did CCCC#Cc1cnc2c(c1)C(=O)N([C@@H](C)CO)C[C@@H](C)[C@@H](CN(C)C(=O)Cc1ccncc1)O2 do in these assays?
UUG fidelity: -27; HIV Env fusion: -2[16.7 µM]

Results for CC(=O)OCO/N=[N+](\[O-])N1CCCC1 ?
UUG fidelity: -4; HIV Env fusion: 6[16.7 µM]

Results for C[C@H]1CN([C@@H](C)CO)S(=O)(=O)c2ccc(C3=CCCC3)cc2O[C@H]1CN(C)Cc1cccnc1 ?
UUG fidelity: -1; HIV Env fusion: -11[16.7 µM]

How did C[C@H]1CN([C@@H](C)CO)C(=O)c2cccc(NC(=O)Nc3cccc4ccccc34)c2O[C@H]1CN(C)Cc1ccc(-c2ccccc2)cc1 do in these assays?
UUG fidelity: -11; HIV Env fusion: -10[16.7 µM]

What do the screens show for `COc1ccc(NC(=O)N(C)C[C@@H]2OCCCC[C@@H](C)Oc3ccc(NS(=O)(=O)c4ccccc4)cc3C(=O)N([C@@H](C)CO)C[C@@H]2C)cc1`?
UUG fidelity: 2; HIV Env fusion: -18[16.7 µM]

Results for COCCOC(=O)N1C(=O)[C@@]2(c3cc(C#CCC(C(=O)OC)C(=O)OC)ccc31)[C@H](C(=O)N1CCN(c3ncccn3)CC1)[C@H]1C(=O)O[C@H](c3ccccc3)[C@H](c3ccccc3)N1[C@@H]2c1ccc(O)cc1 ?
UUG fidelity: -9; HIV Env fusion: -12[16.7 µM]

What do the screens show for `C[C@H](CO)N1C[C@H](C)[C@@H](CN(C)C(=O)Cc2ccccc2)OCCCC[C@H](C)Oc2ccc(NC(=O)Nc3ccc(C(F)(F)F)cc3)cc2C1=O`?
UUG fidelity: -7; HIV Env fusion: 29[16.7 µM]

Results for COc1ccc(NC(=O)Nc2ccc3c(c2)C(=O)N([C@H](C)CO)C[C@@H](C)[C@@H](CN(C)CC2CCCCC2)O3)cc1 ?
UUG fidelity: -1; HIV Env fusion: -8[16.7 µM]

How did CC(C)NC(=O)N(C)C[C@H]1Oc2ccc(NC(=O)NC3CCCCC3)cc2C(=O)N([C@@H](C)CO)C[C@H]1C do in these assays?
UUG fidelity: -2; HIV Env fusion: 11[16.7 µM]

What do the screens show for `C/C=C/c1cnc2c(c1)C(=O)N([C@@H](C)CO)C[C@H](C)[C@H](CN(C)C(=O)Nc1ccc(C(F)(F)F)cc1)O2`?
UUG fidelity: 6; HIV Env fusion: -24[16.7 µM]

What do the screens show for `C[C@@H]1CCCCO[C@H](CN(C)C(=O)Cc2ccccc2)[C@@H](C)CN([C@@H](C)CO)C(=O)c2cc(NC(=O)CCCN(C)C)ccc2O1`?
UUG fidelity: 8; HIV Env fusion: -10[16.7 µM]

How did CO[C@@H]1CN(C)C(=O)c2cc(NC(=O)Nc3cc(F)ccc3F)ccc2OC[C@H](C)N(C)C[C@H]1C do in these assays?
UUG fidelity: 0; HIV Env fusion: -13[16.7 µM]

What do the screens show for `CCC(=O)Nc1ccc2c(c1)C(=O)N(C)C[C@H](OC)[C@H](C)CN(C(C)=O)[C@H](C)CO2`?
UUG fidelity: 1; HIV Env fusion: 8[16.7 µM]

How did C[C@H]1CCCCO[C@@H](CN(C)C(=O)Cc2ccccc2)[C@@H](C)CN([C@@H](C)CO)C(=O)c2cc(NS(=O)(=O)c3cn(C)cn3)ccc2O1 do in these assays?
UUG fidelity: -16; HIV Env fusion: -7[16.7 µM]

Results for Cc1noc(C)c1S(=O)(=O)Nc1ccc2c(c1)CC(=O)N([C@@H](C)CO)C[C@@H](C)[C@@H](CN(C)Cc1ccncc1)O2 ?
UUG fidelity: -8; HIV Env fusion: 10[16.7 µM]

Results for C[C@@H]1CN([C@H](C)CO)C(=O)Cc2cc(NC(=O)C3CC3)ccc2O[C@H]1CN(C)Cc1ccc(C(=O)Nc2ccccc2N)cc1 ?
UUG fidelity: -11; HIV Env fusion: -16[16.7 µM]

What do the screens show for `COc1ccc(NC(=O)Nc2ccc3c(c2)C(=O)N([C@H](C)CO)C[C@H](C)[C@@H](CN(C)C)OCCCC[C@@H](C)O3)cc1`?
UUG fidelity: 1; HIV Env fusion: 6[16.7 µM]

Results for CNC[C@H]1Oc2c(NC(=O)Nc3c(C)noc3C)cccc2C(=O)N([C@H](C)CO)C[C@@H]1C ?
UUG fidelity: 1; HIV Env fusion: 24[16.7 µM]

How did C[C@@H]1CN([C@@H](C)CO)C(=O)Cc2cc(NC(=O)C3CC3)ccc2O[C@@H]1CN(C)Cc1ccc(-c2ccccc2)cc1 do in these assays?
UUG fidelity: -13; HIV Env fusion: -51[16.7 µM]

Taken from the listing, five compounds:
Results for C[C@H]1CN([C@@H](C)CO)S(=O)(=O)c2ccc(C3=CCCC3)cc2O[C@H]1CN(C)Cc1cccnc1 ?
UUG fidelity: -1; HIV Env fusion: -11[16.7 µM]

How did C[C@H]1CN([C@@H](C)CO)C(=O)c2cccc(NC(=O)Nc3cccc4ccccc34)c2O[C@H]1CN(C)Cc1ccc(-c2ccccc2)cc1 do in these assays?
UUG fidelity: -11; HIV Env fusion: -10[16.7 µM]

What do the screens show for `COc1ccc(NC(=O)N(C)C[C@@H]2OCCCC[C@@H](C)Oc3ccc(NS(=O)(=O)c4ccccc4)cc3C(=O)N([C@@H](C)CO)C[C@@H]2C)cc1`?
UUG fidelity: 2; HIV Env fusion: -18[16.7 µM]

Results for COCCOC(=O)N1C(=O)[C@@]2(c3cc(C#CCC(C(=O)OC)C(=O)OC)ccc31)[C@H](C(=O)N1CCN(c3ncccn3)CC1)[C@H]1C(=O)O[C@H](c3ccccc3)[C@H](c3ccccc3)N1[C@@H]2c1ccc(O)cc1 ?
UUG fidelity: -9; HIV Env fusion: -12[16.7 µM]

What do the screens show for `C[C@H](CO)N1C[C@H](C)[C@@H](CN(C)C(=O)Cc2ccccc2)OCCCC[C@H](C)Oc2ccc(NC(=O)Nc3ccc(C(F)(F)F)cc3)cc2C1=O`?
UUG fidelity: -7; HIV Env fusion: 29[16.7 µM]

Carrying on:
How did N#C[C@H]1[C@@H](c2ccc(C#CC3CCCC3)cc2)[C@@H](CO)N1S(=O)(=O)Cc1ccccc1 do in these assays?
UUG fidelity: -9; HIV Env fusion: -23[16.7 µM]

What do the screens show for `C[C@@H]1CN([C@H](C)CO)C(=O)c2cc(NC(=O)CCN3CCOCC3)ccc2O[C@H]1CN(C)CC1CCCCC1`?
UUG fidelity: -5; HIV Env fusion: -1[16.7 µM]

Results for C[C@@H]1CN([C@@H](C)CO)C(=O)Cc2cc(NC(=O)Cn3cnnn3)ccc2O[C@H]1CN(C)S(=O)(=O)c1ccc(F)cc1 ?
UUG fidelity: 15; HIV Env fusion: 2[16.7 µM]

How did COc1cccc(-c2cn(CC[C@@H]3CC[C@@H](NC(=O)CC4CC4)[C@@H](CO)O3)nn2)c1 do in these assays?
UUG fidelity: -4; HIV Env fusion: -43[16.7 µM]

How did O=S(=O)(N[C@H]1CC[C@@H](CCn2cc(-c3ccccn3)nn2)O[C@@H]1CO)c1cccc(F)c1 do in these assays?
UUG fidelity: -8; HIV Env fusion: -14[16.7 µM]

What do the screens show for `C[C@@H]1CCCCO[C@@H](CN(C)Cc2ccc(Cl)c(Cl)c2)[C@H](C)CN([C@H](C)CO)C(=O)c2cc(NC(=O)Nc3ccccc3)ccc2O1`?
UUG fidelity: 9; HIV Env fusion: 33[16.7 µM]

What do the screens show for `C[C@H](CO)N1C[C@H](C)[C@@H](CN(C)C(=O)Nc2cc(F)ccc2F)Oc2cc(/C=C/c3ccccc3)ccc2S1(=O)=O`?
UUG fidelity: -6; HIV Env fusion: 34[16.7 µM]

What do the screens show for `CN(C)C(=O)C[C@@H]1C=C[C@@H](NC(=O)Nc2cccc(F)c2)[C@H](CO)O1`?
UUG fidelity: -9; HIV Env fusion: 2[16.7 µM]

How did COc1cccc(S(=O)(=O)N[C@H]2C=C[C@@H](CC(=O)NCc3ccncc3)O[C@H]2CO)c1 do in these assays?
UUG fidelity: -6; HIV Env fusion: -16[16.7 µM]

Results for Cc1noc(C)c1S(=O)(=O)N(C)C[C@@H]1OCCCC[C@H](C)Oc2ccc(NC(=O)C3CCCCC3)cc2C(=O)N([C@H](C)CO)C[C@@H]1C ?
UUG fidelity: 3; HIV Env fusion: -327[16.7 µM]

How did C[C@@H]1CN([C@@H](C)CO)C(=O)c2cccc(NC(=O)Nc3cccc4ccccc34)c2O[C@H]1CN(C)S(C)(=O)=O do in these assays?
UUG fidelity: -7; HIV Env fusion: -1[16.7 µM]

Results for C[C@@H]1CN([C@H](C)CO)C(=O)c2cc(NC(=O)NC3CCCCC3)ccc2O[C@@H]1CN(C)C ?
UUG fidelity: -7; HIV Env fusion: -18[16.7 µM]

Results for C[C@@H]1CN([C@H](C)CO)C(=O)c2cc(N(C)C)ccc2O[C@H]1CN(C)S(=O)(=O)c1cn(C)cn1 ?
UUG fidelity: -18; HIV Env fusion: -1[16.7 µM]

How did COc1ccccc1-c1cn(CC[C@H]2CC[C@@H](NC(=O)C3CCOCC3)[C@H](CO)O2)nn1 do in these assays?
UUG fidelity: -9; HIV Env fusion: -3[16.7 µM]

What do the screens show for `NCC[C@H]1CC[C@@H](NC(=O)NC2CCCCC2)[C@@H](CO)O1`?
UUG fidelity: -7; HIV Env fusion: 12[16.7 µM]

What do the screens show for `COCC(=O)N(C)C[C@H]1Oc2ncc(C#Cc3cccnc3)cc2C(=O)N([C@@H](C)CO)C[C@@H]1C`?
UUG fidelity: -6; HIV Env fusion: -5[16.7 µM]

Not all compounds are listed; the hit share may differ from the screen's.
